NS1 function inh: influenza NS1 inhibition; S. cerevisiae slowed by influenza A NS1, growth recovery by OD600; Potency, µM (highest dose often 46.1 µM), without a hit: at the highest dose activity, positive = more growth; actives 0.4% (n = 270,000); also: actives are rising curves; nearly all actives have a fitted effect of over 50% in size
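Compounds were scored for reversing the slow growth caused by influenza A NS1 in S. cerevisiae, measured by optical density at 600 nm. Assay medium contained 2% galactose at pH 6.0; NS1-free yeast of the same strain were the positive control.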
RE007 growth inh: less growth of the S. pombe RE007 Vpr strain. S. pombe RE007 Vpr strain, BacTiter-Glo ATP luminescence, 24 h; control for the full effect not named in the record. Potency, µM (highest dose often 92.2 µM), for inactives: at the top dose activity change, negative = less growth. actives 0.21% (n = 360,000); active = well fitted falling curve with a large enough effect; inconclusive = small, poorly fitted or top-dose-only effect; inactive = no such curve, though single readings can be large or run the other way;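 also: % is scaled to controls: 0 for no effect and ±100 for the full control effect; nearly all actives have a fitted effect of over 50% in size; the assay follows cell death caused by Vpr and the record does not say whether a fall means rescue or toxicity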
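Fission yeast RE007 carrying one integrated HIV-1 vpr copy, seeded at OD 0.01 in PMG+AL medium with 23 nL pinned compound. Grown 24 h at 30 degrees; viability read by BacTiter-Glo luminescence after 5 min.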
Cruzain Triton: cruzain (T. cruzi) inhibition with detergent | purified cruzain, Z-FR-AMC fluorescence, 0.01% Triton | actives 0.43% (n = 200,000) | P25779 | Potency, µM, for inactives: max response, negative = inhibition, usual class: inhibitors | AID 1478; active = well fitted curve in the direction sought with a large enough effect; inconclusive = small, poorly fitted or top-dose-only effect, or another doubt; inactive = no such curve, though single readings can be large; an effect the other way counts as inactive or inconclusive;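 also: plate controls were neutral wells for no effect and buffer without enzyme for full effect; nearly all actives have a fitted effect of over 40% in size; top concentration of the series not given in the record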
Target sequence (P25779 123-467 limits assumed): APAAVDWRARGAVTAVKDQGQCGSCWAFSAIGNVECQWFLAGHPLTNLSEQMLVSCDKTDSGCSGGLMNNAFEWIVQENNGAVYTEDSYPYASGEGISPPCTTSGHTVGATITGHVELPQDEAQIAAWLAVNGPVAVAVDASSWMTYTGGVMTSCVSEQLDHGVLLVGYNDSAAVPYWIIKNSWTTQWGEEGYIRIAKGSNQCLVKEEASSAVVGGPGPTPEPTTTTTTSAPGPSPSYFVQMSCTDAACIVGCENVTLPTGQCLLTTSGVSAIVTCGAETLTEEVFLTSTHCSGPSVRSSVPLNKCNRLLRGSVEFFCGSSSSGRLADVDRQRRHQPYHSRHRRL
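15 min RT preincubation of 1.5 nM cruzain with compound, then 2 uM Z-FR-AMC added; kinetic AMC fluorescence, 60 s delta. Triton X-100 0.01%, pH 5.5.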
StopGo reporter: FMDV 2A StopGo reporter, luciferase signal. human cells with a luciferase reporter of 2A StopGo recoding; control for the full effect not named in the record. actives 1.2% (n = 410,000). Potency, µM (top dose mostly 57.9 µM), without a hit: top-dose signal change, negative = less light; active = well fitted falling curve with a large enough effect; inconclusive = small, poorly fitted or top-dose-only effect; inactive = no such curve, though single readings can be large or run the other way; tested in HEK293T cells; also: % is scaled to controls: 0 for no effect and ±100 for the full control effect; nearly all actives have a fitted effect of over 45% in size; luciferase light after 4 h
SARS PLpro yeast: SARS-CoV PLP inhibition in yeast; S. cerevisiae expressing SARS-CoV PLpro, growth rescue; control for the full effect not named in the record; actives 0.19% (n = 330,000); Potency, µM (top dose mostly 32.9 µM), for inactives: at the top dose activity, positive = growth rescue; also: 0% is about no effect; nearly all actives have a fitted effect of over 55% in size; growth read by luminescence after 48 h
Cruzain noTriton: blocks cruzain activity in detergent-free assay | actives 2.3% (n = 200,000) | Potency, µM, for inactives: max response, negative = inhibition, actives largely listed as inhibitors | purified cruzain, Z-FR-AMC fluorescence, no detergent | AID 1476; active = well fitted curve in the direction sought with a large enough effect; inconclusive = small, poorly fitted or top-dose-only effect, or another doubt; inactive = no such curve, though single readings can be large; an effect the other way counts as inactive or inconclusive;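 also: plate controls were enzyme without inhibitor for no effect and buffer without enzyme for full effect; nearly all actives have a fitted effect of over 40% in size; top concentration of the series not given in the record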
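Detergent-free condition (0.00005% Triton X-100) in acetate buffer pH 5.5 with DTT. 1.5 nM enzyme and compound were pre-mixed 15 min, then 2 uM Z-FR-AMC substrate added; reaction progress from fluorescence change between first and third reads (60 s).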
Lassa entry inh: blocks Lassa virus binding to or entry into cells; Lassa virus pseudotype entry inhibition, cell reporter; control for the full effect not named in the record; Potency, µM (series often up to 37.9 µM), for inactives: at the top dose activity change, negative = inhibition, usual class: inhibitors; actives 1.2% (n = 300,000); active means well fitted inhibition curve with a large enough effect; inconclusive means small, poorly fitted or top-dose-only effect, or effect the other way; inactive means flat fitted curve, though single readings scatter; tested in HEK293 cells; also: % is scaled to controls: 0 for no effect and ±100 for the full control effect; nearly all actives have a fitted effect of over 50% in size; luciferase read-out
MARV entry inh: inhibitors of Marburg virus binding or cell entry | Potency, µM (series often up to 37.8 µM), for inactives: top-dose activity change, negative = inhibition, hits mostly inhibitors | Marburg virus pseudotyped entry inhibition, cell reporter; control for the full effect not named in the record; about a third of the inactives were read at about 46 µM | actives 1.8% (n = 300,000); active = well fitted inhibition curve with a large enough effect; inconclusive = small, poorly fitted or top-dose-only effect, or effect the other way; inactive = flat fitted curve, though single readings scatter; tested in HEK293 cells; about a fifth of its hits are not listed in these tables; also: % is scaled to controls: 0 for no effect and ±100 for the full control effect; luciferase read-out
* marks the source's active call; other numbers are inactive results; [ ] = another dose, or the depositor's remark. Unless noted, calls follow the shape of the dose curve; as a rule, active means well fitted rising curve with a large enough effect; inconclusive means small, poorly fitted or top-dose-only effect; inactive means no such curve, though single readings can be large or run the other way. Potency is read from the fitted curve at half-maximal effect. The order is random; any-hit rate near 4.5%.

What do the screens show for `COc1ccc(CC(=O)Nc2cccc(-c3ccc4nnc(C)n4n3)c2)cc1OC`?
RE007 growth inh: 3%; StopGo reporter: 20µM*; SARS PLpro yeast: 2%; Lassa entry inh: inconclusive; MARV entry inh: inconclusive

What do the screens show for `CC(C)=CCCC(C)CN1CCC(N2CCC(C(=O)NC(C)C)CC2)CC1` (stereo not drawn)?
NS1 function inh: 1%; RE007 growth inh: 5%; StopGo reporter: inconclusive; SARS PLpro yeast: 20%

What do the screens show for `CCOC(=O)c1cc(CC)sc1NC(=O)C1CC(=O)NN1Cc1ccccc1` (stereo not drawn)?
NS1 function inh: -5%; RE007 growth inh: 2%; Cruzain Triton: -13%; StopGo reporter: -30%; SARS PLpro yeast: 14%; Cruzain noTriton: inconclusive; Lassa entry inh: -4%; MARV entry inh: inconclusive

What do the screens show for `CN1C(=O)NC(c2cccc([N+](=O)[O-])c2)C2=C1CC(C)(C)CC2=O` (stereo not drawn)?
NS1 function inh: 5%; RE007 growth inh: -1%; StopGo reporter: -20%; SARS PLpro yeast: 1%

What do the screens show for `N#Cc1c(C(F)(F)F)cc(-c2ccc(Cl)cc2)[nH]c1=O`?
NS1 function inh: -24%; RE007 growth inh: 12%; Cruzain Triton: 0.4%; StopGo reporter: -30%; SARS PLpro yeast: -24%; Cruzain noTriton: -12%; Lassa entry inh: 5%; MARV entry inh: inconclusive

Results for CN1C(=O)C(=Cc2ccccc2OCCOc2ccc([N+](=O)[O-])cc2)C(=O)N(C)C1=O ?
RE007 growth inh: 9%; StopGo reporter: -6%; SARS PLpro yeast: -7%; Lassa entry inh: -3%[46.1 µM]; MARV entry inh: inconclusive

How did Cc1cc(C)n(-c2nc3cc(Cl)c(Cl)cc3nc2Nc2ccc(F)cc2C)n1 do in these assays?
Cruzain Triton: 0.2%; StopGo reporter: -9%; Cruzain noTriton: 9%; Lassa entry inh: 6%[46.1 µM]; MARV entry inh: 7%[46.1 µM]

How did COc1cc2c(cc1OC)C(c1ccc(Cl)cc1)=NCC2 do in these assays?
NS1 function inh: 2%; RE007 growth inh: 2%; StopGo reporter: -13%; SARS PLpro yeast: 0%

Results for CC(C)CC(=O)NNC(=O)c1ccc(Cl)cc1 ?
NS1 function inh: -2%; RE007 growth inh: 0%; StopGo reporter: 1%; SARS PLpro yeast: 0%

Results for O=C1C2C3C=CC(C3)C2C(=O)N1c1ccccc1OS(=O)(=O)c1ccccc1 (stereo not drawn) ?
NS1 function inh: 14%; RE007 growth inh: -9%; Cruzain Triton: -1.1%; StopGo reporter: -13%; SARS PLpro yeast: inconclusive; Cruzain noTriton: 0%; Lassa entry inh: inconclusive; MARV entry inh: 16%

What do the screens show for `CCOC(=O)C1(C)NC(c2cccs2)C2C(=O)N(c3ccccc3)C(=O)C21` (stereo not drawn)?
RE007 growth inh: 2%; StopGo reporter: -20%; SARS PLpro yeast: 0%; Lassa entry inh: 15%; MARV entry inh: -20%[46.1 µM]

What do the screens show for `N#CCC(=N)N1CCN(c2ccccc2Cl)CC1`?
NS1 function inh: -4%; RE007 growth inh: 2%; Cruzain Triton: -3.1%; StopGo reporter: -10%; SARS PLpro yeast: -5%; Cruzain noTriton: 25µM*; Lassa entry inh: 3%; MARV entry inh: -4%

How did O=C(NC1CCC(=O)N(CCOc2ccccc2)CC1)OCc1ccccc1 (stereo not drawn) do in these assays?
NS1 function inh: -15%; RE007 growth inh: -17%; StopGo reporter: inconclusive; SARS PLpro yeast: 7%

What do the screens show for `COC(=O)CC1C(=O)NCCN1C(=O)c1c(F)cccc1F` (stereo not drawn)?
NS1 function inh: 14%; RE007 growth inh: -8%; StopGo reporter: -11%; SARS PLpro yeast: 1%; Lassa entry inh: 16%; MARV entry inh: 1%[46.1 µM]

What do the screens show for `Cc1nc2ccc(NC(=O)c3cncc(Br)c3)cc2s1`?
NS1 function inh: -4%; RE007 growth inh: -6%; StopGo reporter: 47%[activator]; SARS PLpro yeast: 0%

Results for CCC(=O)NCc1nc2ccccc2n1Cc1ccccc1F ?
NS1 function inh: 2%; RE007 growth inh: 8%; Cruzain Triton: 1.4%; StopGo reporter: 15%; SARS PLpro yeast: 10%; Cruzain noTriton: 11%; Lassa entry inh: -9%; MARV entry inh: 2%

Results for COc1ccc(C(O)c2nccc3cc(OC)c(OC)cc23)cc1OC (stereo not drawn) ?
RE007 growth inh: -4%; StopGo reporter: inconclusive; SARS PLpro yeast: 0%; Lassa entry inh: -21%; MARV entry inh: -15%[46.1 µM]

How did CC(C)Cc1nnc(NC(=O)CCC(=O)NCCc2ccc(Cl)cc2)s1 do in these assays?
NS1 function inh: 3%; RE007 growth inh: -9%; StopGo reporter: -21%; SARS PLpro yeast: 0%

How did COc1ccc(N2CC(C(=O)N/N=C/c3cc([N+](=O)[O-])ccc3O)CC2=O)cc1 (stereo not drawn) do in these assays?
RE007 growth inh: 2%; StopGo reporter: 2%; SARS PLpro yeast: 5%; Lassa entry inh: inconclusive; MARV entry inh: inconclusive

What do the screens show for `Cc1ccc(-c2nc3ncccn3c2Nc2ccc3c(c2)OCO3)o1`?
NS1 function inh: 4%; RE007 growth inh: -2%; Cruzain Triton: -5.0%; StopGo reporter: 9%; SARS PLpro yeast: 5%; Cruzain noTriton: -14%; Lassa entry inh: -24%; MARV entry inh: inconclusive

How did COc1ccccc1NC(=O)C1CC(O)CN1C(=O)Oc1ccccc1 (stereo not drawn) do in these assays?
NS1 function inh: -7%; RE007 growth inh: 0%; StopGo reporter: 3%; SARS PLpro yeast: -1%; Lassa entry inh: inconclusive; MARV entry inh: 7%[46.1 µM]

Results for O=C(CC(c1cccs1)N1Cc2ccccc2C1=O)Nc1ccccc1F (stereo not drawn) ?
Cruzain Triton: -4.8%; StopGo reporter: 13%; Cruzain noTriton: 0%; Lassa entry inh: -12%[46.1 µM]

What do the screens show for `Cc1ccc(C)c(-n2c(-c3ccc4c(c3)OCO4)n[nH]c2=S)c1`?
NS1 function inh: 10%; RE007 growth inh: -3%; Cruzain Triton: -1.9%; StopGo reporter: 0%; SARS PLpro yeast: 5%; Cruzain noTriton: 7%; Lassa entry inh: 10%; MARV entry inh: 10%

Results for CCN(CC)CCSc1c(C(C)C)cnc2c1c(=O)n(C)c(=O)n2C ?
Cruzain Triton: 0.3%; StopGo reporter: -13%; Cruzain noTriton: -7%; Lassa entry inh: 3%[46.1 µM]

What do the screens show for `CCC(c1nnnn1Cc1ccc2c(c1)OCO2)N1CCN(CC)CC1` (stereo not drawn)?
NS1 function inh: 0%; RE007 growth inh: -15%; StopGo reporter: 0%; SARS PLpro yeast: 0%; Lassa entry inh: inconclusive; MARV entry inh: 2%[46.1 µM]

How did Nc1ccc(Nc2ccncc2[N+](=O)[O-])cc1 do in these assays?
NS1 function inh: 5%; RE007 growth inh: 0%; Cruzain Triton: -0.3%; SARS PLpro yeast: -9%; Cruzain noTriton: -19%; Lassa entry inh: -28%; MARV entry inh: 15%

Results for CCOC(=O)C1CCN(C(=O)C2CCN(C(=O)c3ccc([N+](=O)[O-])cc3)CC2)CC1 ?
NS1 function inh: 4%; RE007 growth inh: inconclusive; StopGo reporter: 0%; SARS PLpro yeast: 6%; Lassa entry inh: -5%; MARV entry inh: 11%

How did COc1ccc(CC(CC(=O)O)C(=O)Nc2ccc(OC)cc2)cc1 (stereo not drawn) do in these assays?
NS1 function inh: -5%; RE007 growth inh: 6%; Cruzain Triton: 5.0%; StopGo reporter: 2%; SARS PLpro yeast: -3%; Cruzain noTriton: 2%; Lassa entry inh: 4%; MARV entry inh: 11%

What do the screens show for `COC(=O)Cc1c(O)ccn(CCc2ccc(OC)c(OC)c2)c1=O`?
NS1 function inh: 3%; RE007 growth inh: 9%; StopGo reporter: 5%; SARS PLpro yeast: -1%; Lassa entry inh: inconclusive; MARV entry inh: 1%[46.1 µM]

How did Cc1noc(C)c1CSCC(=O)N1CCN(c2ccc([N+](=O)[O-])cc2)CC1 do in these assays?
NS1 function inh: -46%; RE007 growth inh: -5%; Cruzain Triton: -12%; StopGo reporter: inconclusive; SARS PLpro yeast: -2%; Cruzain noTriton: 2%; Lassa entry inh: inconclusive; MARV entry inh: inconclusive

How did CC1CCCCN1S(=O)(=O)c1ccc(C(=O)Nc2ccccc2-c2nc3ccccc3s2)cc1 (stereo not drawn) do in these assays?
NS1 function inh: -9%; RE007 growth inh: -4%; Cruzain Triton: 0.5%; StopGo reporter: -17%; SARS PLpro yeast: 12%; Cruzain noTriton: inconclusive; Lassa entry inh: 8%; MARV entry inh: inconclusive

What do the screens show for `CC(C)(C)OC(=O)C(C)(C)Sc1nnc(N)s1`?
NS1 function inh: 0%; RE007 growth inh: 6%; StopGo reporter: -15%; SARS PLpro yeast: 0%

Results for CCc1ccc(NC(=O)CN2C(=O)CSC2=O)cc1 ?
NS1 function inh: 5%; RE007 growth inh: 51%; Cruzain Triton: -1.2%; StopGo reporter: 47%[activator]; SARS PLpro yeast: -9%; Cruzain noTriton: -3%; Lassa entry inh: 0%; MARV entry inh: 9%

Results for CN(CC(=O)NCc1ccc(Cl)cc1)S(=O)(=O)c1cccc2cccnc12 ?
NS1 function inh: -4%; RE007 growth inh: 4%; Cruzain Triton: 4.3%; StopGo reporter: -21%; SARS PLpro yeast: 3%; Cruzain noTriton: 3%

Results for COc1cc(/C=N/NC(=O)C2CC(=O)N(c3ccc(C)cc3)C2)cc(OC)c1OC (stereo not drawn) ?
NS1 function inh: 3%; RE007 growth inh: -18%; StopGo reporter: 5%; SARS PLpro yeast: 1%; Lassa entry inh: 0%; MARV entry inh: 1%[46.1 µM]

Results for COCCCNC(=O)c1ccc2c(=O)n(Cc3ccc4c(c3)OCO4)c(=S)[nH]c2c1 ?
NS1 function inh: 0%; RE007 growth inh: 6%[3.69 µM]; Cruzain Triton: -3.0%; StopGo reporter: -8%; SARS PLpro yeast: 2%; Cruzain noTriton: -7%; Lassa entry inh: 0%; MARV entry inh: inconclusive

Screens: PubChem, National Center for Advancing Translational Sciences (NCATS)
